# Anaer choline gr: choline-fed anaerobic bacterial growth inhibition. hit rate 0.2% among 55,000. Gram-negative bacterium anaerobic choline minimal medium, absorbance growth; active compounds read low; many inactives read as strong as hits in the columns shown. calls only;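 active = growth z-score on choline under -2 at 7 or 20 h with little or no fall on glycerol, limits in tiers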;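 note: stock transfer was 300 nL into about 50 µL; the organism is E. coli; final concentration not given here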
# Anaer choline gr early: also measured in Anaer choline gr; calls as there; z-score; measured here: choline growth z-score, timepoint 1;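 score of optical density at 7 h as mean of two plates; lower means less growth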
# * hit, by the source's call; i = inactive; & = joins results of further samples. These rows are one share of the data; rates above refer to the full screens.
# Sequence of screens: Anaer choline gr | Anaer choline gr early
1: Cc1cc(C)n2nc(N(Cc3c(F)cccc3Cl)S(=O)(=O)c3ccc(Cl)cc3)nc2n1
    i | 0.22
2: CCOC(=O)c1cc2ccsc2n1CC(=O)NC1CCCC1
    i | 1.5
3: COc1ccc(S(=O)(=O)N2CC(OCc3ccc(Cl)cc3)C2)cc1OC
    i | 0.54
4: Clc1ccc(-c2cc(-c3nc(-c4cccnc4)no3)[nH]n2)cc1
    i | -1.3
5: CN(C)C(=O)C1CCN(S(C)(=O)=O)c2cc(Cl)ccc2O1 (configuration not stated)
    i | 0.76
6: O=C(NCc1c(-c2ccccc2)nc2n1CCS2)c1ccccc1Cl
    i | 2.5
7: CCOc1ccccc1-c1noc(-c2cc(-c3ccccc3)n[nH]2)n1
    i | -0.76
8: C[C@H](O)C(=O)C1=Nc2c(nc(N)[nH]c2=O)NC1
    i | 0.77
9: OC(COc1ccccc1)Cn1c(C2CC2)nc2ccccc21 (configuration not stated)
    i | -1.2
10: CCC(C)(C)NS(=O)(=O)c1ccc2c(c1)C(C)(C)CN2CC(=O)N1CCCC1
    i | -0.38
11: CC(C)C(=O)N1CCCN(S(=O)(=O)C(C)C)CC1
    i | 0.43
12: Cc1c(NC(=O)c2cnn3c(C(F)(F)F)cc(-c4ccccc4)nc23)c(=O)n(-c2ccccc2)n1C
    i | 0.23
13: O=C(Nc1cccc(Br)c1)C1Nc2ccccc2S(=O)(=O)N1 (configuration not stated)
    i | 0.96
14: Cc1cc(C)cc(NC(=O)Nc2ccc(SCc3cc(=O)n4c(ncn4C(C)C)n3)cc2)c1
    i | 0.38
15: COC(=O)c1sccc1NC(=O)CN1CCCN(Cc2ccccc2F)S1(=O)=O
    i | 0.22
16: COc1ccc(Nc2c(-c3ccc(N(C)C)cc3)nc3cnc(Br)cn23)cc1OC
    i | 1.4
17: CCc1nnc(NC(=O)c2cc(=O)c3cc(F)ccc3o2)s1
    i | -1.4
18: O=C(CC1CCN(C(=O)c2nnc(C(=O)Nc3ccccc3)s2)CC1)NCCc1c[nH]c2ccccc12
    i | -0.26
19: O=S(=O)(NC1CCN(Cc2ccccc2)CC1)c1cc(-c2cc(C(F)(F)F)on2)cs1
    i | -1.1
20: CCOc1ccc(C2c3c(oc4cc(C)cc(C)c4c3=O)C(=O)N2CC2CCCO2)cc1 (configuration not stated)
    i | 0.21
21: Cc1cc(C)cc(NC(=O)Cn2c3ncccc3c(=O)n2-c2ccccc2)c1
    i | 1.2
22: Cc1cc(-c2csc(S(=O)(=O)Nc3ccc(S(N)(=O)=O)cc3)c2)on1
    i | -1.2
23: Cc1ccc2c(c1)C(c1ccccc1)N(C(=O)c1cccc(Cl)c1)CC(=O)N2 (configuration not stated)
    i | -0.13
24: Cc1ccc(N2CC(C(=O)N3CCC(c4nc(-c5ccccc5)no4)CC3)CC2=O)cc1 (configuration not stated)
    i | 1.3
25: CCCN1CCN(CCCNC(=O)c2cnc3c(C)cccn3c2=O)CC1
    i | 0.19
26: c1ccc(-c2noc(NC3CCCCC3)n2)cc1
    i | -0.56
27: Cc1oc(-c2ccccc2F)nc1CS(=O)(=O)CC(=O)N1CCC(Cc2ccccc2)CC1
    i | 0.17
28: O=C(Nc1ccccc1)c1c(O)c2ccccc2[nH]c1=O
    i | 0.87
29: O=C(Nc1ccc(OCc2cc(=O)n3[nH]cnc3n2)cc1)c1ccccc1
    i | 0.28
30: COc1ccc(Nc2cc(C)nc(-n3nc(C)cc3C)n2)cc1Cl
    i | -0.71
31: O=c1[nH]c2ccccc2nc1CN1CCOCC1
    i | 0.88
32: COCCCNC(=O)Cc1csc2nc(-c3ccc(F)cc3)cn12
    i | 0.23
33: COc1cc(=O)n(-c2ccccc2C)nc1C(=O)Nc1cccc(Br)c1
    i | -0.11
34: Fc1ccc(Nc2nc(NC3CCCC3)nc3c2cnn3-c2ccccc2)cc1
    i | 0.66
35: O=C(c1cc2ccccc2[nH]1)N1CCC(NS(=O)(=O)c2ccc(Cl)cc2)CC1
    i | 1.4
36: CC(C)(C)NC(=O)Nc1nnc(SCC(=O)NC2CCCC2)s1
    i | 0
37: Cc1cc(N(C)C)n2ncc(-c3ccc(Cl)cc3)c2n1
    i | 0.57
38: Cc1ccc(S(=O)(=O)N2CCC3(CC2)NCCN=C3NCc2ccccc2F)c(C)c1
    i | -1.1
39: CC1CCCN(C(=O)c2cc(CN3CCOCC3)on2)C1 (configuration not stated)
    i | -2.1
40: COc1cccc(Sc2nc3ccccc3n3c(=O)n(CC(=O)N4CCCc5ccccc54)nc23)c1
    i | -0.04
41: CC1CCC(NC(=O)C2(C)Cn3c(cc4occc43)C(=O)N2CCN2CCN(C)CC2)CC1 (configuration not stated)
    i | -0.03
42: CCOc1ccc(S(=O)(=O)c2cn(CC(=O)Nc3ccccc3Cl)c3nc(C)ccc3c2=O)cc1
    i | 0.05
43: O=C(O)c1ccc(N2CCN(c3ccccn3)CC2)c(NC(=O)c2ccc(Br)cc2)c1
    i | -0.07
44: Cc1cc(C)n(-c2nc3c(c(=O)n2CC(=O)Nc2cc(C)on2)CCC3)n1
    i | -0.45
45: O=C(CS(=O)Cc1cnn(-c2ccccc2)c1-n1cccc1)N1CCN(c2ccccc2)CC1 (configuration not stated)
    i | 0.2
46: Cc1cc(N2CCCCC2)nc(Nc2ccc(NC(=O)Nc3ccccc3)cc2)n1
    i | 0.45
47: c1ccc2cc(C3=NCCN3)ncc2c1
    i | 1.1
48: COc1ccc(NC(=O)Cn2c(=O)c(CCC(=O)NC3CCCCC3)nc3ccccc32)c(OC)c1
    i | 0.44
49: CCC(C(=O)N(Cc1nc2nc(C)cc(=O)n2[nH]1)c1ccccc1)c1ccccc1 (configuration not stated)
    i | 0.17
50: Nc1nc2c(c(=O)[nH]1)C(c1ccc(Cl)cc1)CC(=O)N2 (configuration not stated)
    i | 0.92
51: CCCCCCCCCCCCCC(=O)N[C@H](C)[C@@H](O)c1ccccc1
    i | 1&0.21
52: Cn1ccc2cc(S(=O)(=O)N3CCN(C(=O)Nc4ccc(Cl)cc4)CC3)ccc21
    i | -0.41
53: CC1(C(=O)NCc2ccc(F)cc2)CCCN(C(=O)C2CC2)C1 (configuration not stated)
    i | -0.88
54: Cc1sc2ncc(C(=O)N3CCN(c4cccc(Cl)c4)CC3)c(=O)n2c1C
    i | 0.53
55: CCOC(=O)CC1=CC(=O)N(Cc2ccc(Cl)cc2)c2ccccc2N1
    i | 0.16
56: CC(C)NCc1ccc(-c2cccc(Cl)c2)o1
    i | -0.5
57: CCC(C(=O)NCCC(C)C)n1cnc2oc(C)c(C)c2c1=O (configuration not stated)
    i | -0.44
58: Cc1cc2n(n1)CC(C)(C(=O)NCc1ccc(F)cc1)N(c1ccc(F)cc1)C2=O (configuration not stated)
    i | -0.21
59: Cc1cc(Br)ccc1NC(=O)c1cc2c(C)nn(-c3ccccc3)c2s1
    i | 0.32
60: O=C(c1noc2c1COc1ccccc1-2)N1CC=C(c2ccccc2)CC1
    i | -2.4

# Next results:
# Sequence of screens: Anaer choline gr | Anaer choline gr early
61: COc1ccc(N2CC(c3nnc(NC(=O)Cc4ccc(Cl)cc4)o3)CC2=O)cc1 (configuration not stated)
    i | 0.47
62: CCOC(=O)C1(c2ccccc2)CCCN1C(=O)CN1C(=O)c2ccccc2C1=O (configuration not stated)
    i | -0.72
63: CN(Cc1ccccc1)C(=O)c1nc(N2CCOCC2)c2oc3ccccc3c2n1
    i | -0.24
64: CCN1CCN(c2ccc3nnc(CCc4nc(-c5ccc(F)cc5)no4)n3n2)CC1
    i | -0.22
65: CCCc1cc(C2CCCN2S(=O)(=O)c2cnc[nH]2)no1 (configuration not stated)
    i | -1.6
66: Cc1[nH]c(C)c(S(=O)(=O)N2CCC(C(=O)Nc3ccc4c(c3)OCCO4)CC2)c1C(=O)N1CCCC1
    i | -0.29
67: COc1ccccc1CNC(=O)C1c2c(C)nn(-c3ccccc3)c2SCC(=O)N1c1ccc(C(C)C)cc1 (configuration not stated)
    i | -0.33
68: Cc1cccc(NC(c2ccsc2)c2c(NC(=O)c3ccccc3)sc(C)c2C)n1 (configuration not stated)
    i | -0.88
69: O=C(Nc1ccc(F)c(Cl)c1)N1CCC(N2CCN(Cc3ccc(F)cc3)C(=O)C2=O)CC1
    i | -0.12
70: CN1C(=O)Cc2cc(S(=O)(=O)N(C)CCc3noc(-c4ccccc4F)n3)ccc21
    i | -1.2
71: O=C(COc1ccc(Cl)cc1)Nc1ccnn1C1CCCC1
    i | -0.38
72: Cc1nc2cc(C(=O)NCCc3ccc(Cl)cc3)ccc2n(Cc2ccccc2)c1=O
    i | -0.38
73: c1cc2c(cc1-c1noc(C3CCC3)n1)ncn2CCN1CCCCC1
    i | 0.15
74: CCSc1nc2ccc(NS(=O)(=O)c3ccccc3)cc2s1
    i | -1
75: CC(C)CCn1c(CN2CCCCC2)nc2ccccc21
    i | -0.37
76: COc1cccc(Nc2ncc3c(n2)CCN(Cc2ccc(Cl)c(F)c2)C3)c1
    i | 0.14
77: Cc1c(NC(=O)c2ccc(C(C)(C)C)cc2)c(-n2cnnc2)nn1C
    i | -0.56
78: O=C(CSc1nc2nc[nH]c2c(=O)[nH]1)N1c2ccccc2Sc2ccccc21
    i | -1.2
79: O=C(c1ccc(F)cc1)N1CCc2cc(CNS(=O)(=O)c3ccccc3)ccc21
    i | -0.71
80: Cc1c(-c2nnc(C(=O)NCc3ccccc3Cl)o2)oc2ccccc12
    i | -1.1
81: Oc1cccc(-c2nc3cnccn3c2Nc2ccccc2)c1
    i | -0.94
82: Cc1cc(NC(=O)c2ccccc2)n(-c2nc(C)c(C)c(=O)[nH]2)n1
    i | 0.65
83: COc1ccc2nc(NC(=O)C3CCN(S(=O)(=O)c4cn(C)c(C)n4)CC3)sc2c1
    i | -2.2
84: O=C(NCc1ccc(F)cc1)c1cccc(N2CCCS2(=O)=O)c1
    i | -0.44
85: CCC(C)Cn1c(CN2CCOCC2)nc2ccccc21 (configuration not stated)
    i | -0.5
86: CCOC(=O)c1nc(NC2CCS(=O)(=O)C2)c2c(C)noc2n1 (configuration not stated)
    i | 0.34
87: COc1ccccc1/C=C/c1nn2c(-c3cccnc3)nnc2s1
    i | -0.17
88: Cc1ccc(Nc2c(-c3ccc(N4CCOCC4)cc3)nc3ccccn23)cc1
    i | 0.58
89: Cc1ccc2c(Cl)cc(Cl)c(O)c2n1
    i | -2.4&0.43
90: CC(C)C(=O)N1CC(C)(C)c2cc(S(=O)(=O)NCCc3ccc(S(N)(=O)=O)cc3)ccc21
    i | 0.51
91: O=C(Nc1ccccc1)N1CCc2c([nH]c3ccccc23)C1c1cccnc1 (configuration not stated)
    i | -0.27
92: COc1cccc(OC)c1C(=O)Nc1ccc(SCc2nnc(-c3ccccc3)o2)cc1
    i | 0.99
93: Cc1cc(C2CCCN2C(=O)c2c(F)cccc2F)on1 (configuration not stated)
    i | 0.2
94: Cc1ccc(-c2noc3ncnc(N4CCCCC4C)c23)cc1 (configuration not stated)
    i | 0.24
95: Cc1nc2cc(-c3noc(-c4ncoc4-c4ccccc4)n3)ccc2o1
    i | 0.21
96: CCN1CCN(S(=O)(=O)c2ccc(-c3cc(C(F)(F)F)on3)o2)CC1
    i | -0.65
97: O=C(COc1cc(O)c2c(=O)cc(-c3ccccc3)oc2c1)N[C@@H](C(=O)O)c1ccccc1
    i | 0.55
98: CCCCC(CC)COc1ccc(-c2nc(-c3ccc(OC)cc3)nc(-c3ccc(OCC(CC)CCCC)cc3O)n2)c(O)c1 (configuration not stated)
    i | 0.55
99: Cc1[nH]c(C(=O)N2CCCC(C(=O)NCCCN3CCCC3)C2)c(C)c1C(=O)OC(C)C (configuration not stated)
    i | 0.41
100: CCc1cccc(CC)c1NC1=NS(=O)(=O)c2ccccc21
    i | -0.11
101: CCN(CC)S(=O)(=O)c1cc(-c2nc(C(C)(C)C)cs2)cs1
    i | -0.32
102: CN1CCN(C(=O)CN2C(=O)CCCc3ccccc32)CC1
    i | -1
103: CCn1c(=O)c(SCC(=O)N2CCOCC2)nc2ccccc21
    i | -0.5
104: CCc1onc(C)c1C1CCCN1Cc1cc(OC)cc(OC)c1 (configuration not stated)
    i | -1
105: CCCS(=O)(=O)c1nc2ccc(NS(=O)(=O)c3cc(C)ccc3C)cc2s1
    i | -2.4
106: COC1C=CO[C@@]2(C)Oc3c(C)c(O)c4c(O)c(c(C=NN5CCN(C6CCCC6)CC5)c(O)c4c3C2=O)NC(=O)C(C)=CC=CC(C)C(O)C(C)C(O)C(C)C(OC(C)=O)C1C (some centres not stated)
    i | -2
107: Cc1ncsc1CN1CCCC(c2nncn2C(C)C)C1 (configuration not stated)
    i | 0.18
108: Cc1sc(C)c(S(=O)(=O)N2CCN(c3ccccn3)CC2)c1-c1cc(C(F)(F)F)on1
    i | 0.76
109: Cc1ccccc1-c1nc(N)n(C(=O)C(C)(C)C)n1
    i | -0.89

# High-throughput results deposited in PubChem by ICCB-Longwood Screening Facility, Harvard Medical School.
